FEN1 inh: blocks human flap endonuclease 1; P39748; Recombinant FEN1 flap cleavage, fluorescence, 15 min; Potency, µM (top dose mostly 114 µM), for the others: at the top dose activity change, negative = inhibition, most hits filed as inhibitors; actives 0.35% (n = 390,000); AID 588795; further: nearly all actives have a fitted effect of over 65% in size
Target sequence (P39748 whole entry, looked up): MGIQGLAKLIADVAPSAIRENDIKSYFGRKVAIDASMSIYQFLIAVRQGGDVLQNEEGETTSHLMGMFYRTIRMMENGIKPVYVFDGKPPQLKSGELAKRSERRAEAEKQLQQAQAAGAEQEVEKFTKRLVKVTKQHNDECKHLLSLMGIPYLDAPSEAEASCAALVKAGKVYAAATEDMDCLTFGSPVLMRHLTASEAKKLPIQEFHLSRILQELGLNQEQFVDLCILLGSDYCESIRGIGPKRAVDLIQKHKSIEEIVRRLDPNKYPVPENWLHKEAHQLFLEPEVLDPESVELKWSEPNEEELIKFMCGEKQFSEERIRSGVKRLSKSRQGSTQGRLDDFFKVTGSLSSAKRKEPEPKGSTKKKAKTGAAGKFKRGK
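FEN1 at 10 nM preincubated with compounds 15 min at room temperature, then flap DNA substrate added at 50 nM final. Signal read at 0 and 15 min; concentration-response fitted with four-parameter Hill equation.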
N370S GC: inhibits or activates N370S mutant glucocerebrosidase | N370S GC spleen homogenate, 4MU-glucoside fluorescence | P04062 | AID 2101 | Potency, µM (top dose mostly 59.4 µM), inactives show at the highest dose activity change, negative = inhibition, hits mostly inhibitors | actives 0.092% (n = 330,000);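 further: 0% = full enzyme activity and -100% = no enzyme basal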
Starred values were filed as active, the others as inactive; ? = inconclusive; . = not tested or not shown; [ ] = dose if it differs, or a comment. The call rests on the fitted dose curve; in most records, active means well fitted curve in the direction sought with a large enough effect; inconclusive means small, poorly fitted or top-dose-only effect, or another doubt; inactive means no such curve, though single readings can be large; an effect the other way counts as inactive or inconclusive. Unless noted, on the % scale 0 is the no-effect control and ±100 the full control effect; potency means the concentration at half of the fitted maximal effect. Some of the compounds tested; most or all hits stand in other tables.

FEN1 inh	N370S GC	canonical_smiles
-6%	4%	O=C(NCC1CCCO1)c1ccc(N2C(=O)C3CCCCC3C2=O)cc1 (centres undefined)
-15%	-15%	Cc1ccc(O)c(NC(=O)CCCC(=O)O)c1
-14%	0%	CC(=O)Nc1ccc(NC(=O)c2ccc(-c3ccc([N+](=O)[O-])cc3)o2)cc1
-4%	4%	CC1CCC2(CC1)NC(=O)N(Cc1cc(=O)n3ccsc3n1)C2=O (centres undefined)
-4%	-7%	N#CCC(=N)N1CCN(c2cccc(Cl)c2)CC1
0%	2%	CCn1c(SCC(=O)NNC(=O)c2ccc(OC)cc2)nnc1-c1ccco1
-2%	-11%	CCCn1c(SCC(=O)NC(C)c2ccccc2)n[nH]c1=O (centres undefined)
0%	18%	CC(C)c1nnc(NC(=O)C2c3ccccc3Oc3ccccc32)s1
0%	-4%	O=C(N/N=C1\CCSC1)c1cc(Cl)ccc1O
-11%	.	C=CC[C@@H](CC(=O)N(CCO)Cc1ccccc1)C(=O)N[C@H](COC(=O)[C@@H](CC=C)CC(=O)OC(C)(C)C)c1ccccc1
3%	.	Cc1ccc(N2CCN(C(=O)c3cn(C)c4ccc(S(=O)(=O)N5CCC(C)CC5)cc4c3=O)CC2C)cc1 (centres undefined)
5%	-19%	O=C(NCCc1ccccc1)c1ccc([N+](=O)[O-])cc1
-1%	.	Cc1ccc(N2C(=O)N(Cc3cc(=O)n4ccccc4n3)c3ccccc3S2(=O)=O)cc1Cl
-7%	.	CCc1ccccc1NC(=O)CN1CCN(C(=O)CN2C(=O)NC3(CCCC3)C2=O)CC1
2%	1%	CCOC(=O)N1CCN(C(=O)c2nc3ccccc3s2)CC1
1%	8%[2.35 µM]	COc1ccc(CCNC(=O)CCSc2nc(-c3ccco3)cc(C(F)(F)F)n2)cc1
-11%	1%	O=C(CN(Cc1cccs1)C(=O)CNS(=O)(=O)c1ccc(F)cc1)NCc1ccco1
.	5%	CN(C)CCCO[C@H]1C([C@H](O)CO)O[C@@H]2OC(C)(C)O[C@@H]21 (some centres undefined)
4%	.	CCOc1ccccc1CNC(=O)c1ccc2c(c1)sc1nc(-c3ccccc3)cn12
-15%	11%	Cc1ccc(-c2noc(C3CCN(S(=O)(=O)c4ccc5c(c4)OCCO5)CC3)n2)o1
-3%	-1%	CCN(CC)CCN1C(=O)C(O)=C(C(C)=O)C1c1ccc(OC)c(OC)c1 (centres undefined)
7%	-8%	COc1ccccc1C(=O)N1CCN(c2ccccn2)CC1
5%	1%	Cc1cc(NC(=O)CSc2ccc(-c3cccc([N+](=O)[O-])c3)nn2)no1
-3%	.	COc1cccc(CNC(=O)c2cc(-c3ccc(Cl)cc3)n[nH]2)c1
3%	-19%	CCN(CC(=O)NCc1ccncc1)S(=O)(=O)c1ccccc1
3%	3%	CC(C)C[C@H](NC(=O)c1nc[nH]c1C(=O)N1CCC(C)CC1)C(=O)OC(C)(C)C
11%	4%	COc1ccc(N2CCN(CC(=O)Nc3ccccc3SC)CC2)cc1
1%	-1%	Cc1cccc(-n2cc(-c3ccccc3)c3c(NN4CCOCC4)ncnc32)c1
-4%	5%	C=C(C)C1CC=C(C)/C(=N/NC(=O)COc2ccc(C)cc2)C1 (centres undefined)
5%	26%	O=C(c1ccccc1Sc1c(Cl)cccc1[N+](=O)[O-])N1CCOCC1
.	-22%	COC(=O)C/C=C/[C@@H](C)[C@H](OC)c1c(Br)ccc2c1OCO2
-8%	-3%	CO/N=C/CC(=O)c1cnc(-c2ccccc2)s1
17%	-4%	Cc1cc(Nc2cccc(C)c2C)n2ncnc2n1
-2%	-8%	CC1CCCN(c2cc(N(C)CCO)c([N+](=O)[O-])c3nonc23)C1 (centres undefined)
14%	-11%	Cc1cc(NC(=NC2CC2)c2ccccc2F)n(-c2ccccc2)n1
.	2%	C=C1C[C@@]23C[C@@]1(O)CC[C@@H]2[C@]12C=C[C@@H](O)[C@](C)(C(=O)O1)[C@@H]2[C@@H]3C(=O)O
-11%	-20%	CCCc1cc(=O)oc2cc(OCC(=O)Nc3ccc(CN4CCOCC4)cc3)c(Cl)cc12
-1%	-3%	Nc1ncc(Br)cc1Br
-6%	.	CNc1ccc(C(=O)OCC(=O)Nc2ccnn2C(C)C)cc1[N+](=O)[O-]
27%	-17%	COc1ccc(-n2nc3c(N4CCC(C(=O)NCc5cccc(C)c5)CC4)nnc(C)c3c2C)cc1
-12%	-2%	O=C(COC(=O)c1ccc(S(=O)(=O)N2CCCC2)cc1)Nc1ccc(F)cc1F
-1%	-19%	COC(=O)c1sccc1N/C=C(\C#N)S(=O)(=O)C(C)(C)C
-4%	3%	O=C(N/N=C/c1ccc2cccc(OCc3ccccc3)c2n1)c1ccc(Cl)cc1
9%	.	COc1cc(-c2ccc3sc(-c4ccsc4)c(C#CCO)c3c2)cc(OC)c1OC
8%	-3%	Cc1ccc(/C=N/Nc2cccc(C(=O)O)c2)s1

Record cards (already shown). Values in the order: FEN1 inh, N370S GC
CCOC(=O)N1CCN(C(=O)c2nc3ccccc3s2)CC1 is entered as 2%, 1%
O=C(NCC1CCCO1)c1ccc(N2C(=O)C3CCCCC3C2=O)cc1 (centres undefined) is entered as -6%, 4%
CCn1c(SCC(=O)NNC(=O)c2ccc(OC)cc2)nnc1-c1ccco1 is entered as 0%, 2%

Further entries:
FEN1 inh	N370S GC	canonical_smiles
14%	1%	O=C(O)/C=C/C(=O)OC1CC2CCC1C2 (centres undefined)
17%	-4%	CCOC(=O)c1c(C)[nH]c(C)c1S(=O)(=O)NCC(=O)Nc1ccccn1
-10%	3%	CC1CCCCC1NS(=O)(=O)c1ccc(S(=O)(=O)N2CCCC2)cc1 (centres undefined)
-17%	4%	COc1ccc(NC(=O)/C(Cl)=C(/Cl)S(=O)Cc2ccccc2Cl)cn1 (centres undefined)
?	-19%	COc1cc(C(=S)N2CCOCC2)ccc1OC(=O)c1ccccc1C
-16%	-6%	O=C(Nc1ncc(Cc2ccc(C(F)(F)F)cc2)s1)c1ccc(-c2cccc([N+](=O)[O-])c2)o1
-13%	-28%	COc1cc(/C=N/NC(=O)c2ccc(F)cc2)ccc1OC(=O)c1ccco1
0%	-2%	COc1ccc(CCN(Cc2cc3ccc(C)cc3n3nnnc23)C(C)=O)cc1OC
19%	-17%	CN(C)C(CNc1ncnc2sccc12)c1cccs1 (centres undefined)
1%	8%	CCS(=O)(=O)N1CCCC(C(=O)NCCCOC(C)C)C1 (centres undefined)
-11%	1%	COc1nc(N/N=C/c2ccccc2F)nc(N2CCCCC2)n1
-5%	0%	CN(C)S(=O)(=O)c1ccc(Oc2ccccc2)cc1
11%	3%	O=C(Nc1cc(C(F)(F)F)ccc1N1CCOCC1)c1cccnc1
7%	-2%	COc1ccc(NC(=O)CSc2ccc(-c3ccco3)nn2)c(OC)c1
3%	2%	CN(C)c1cccc(C(=O)OCC(=O)Nc2nccs2)c1
2%	-2%	O=S(=O)(Nc1cccnc1)c1ccc2c(c1)OCCO2
-15%	3%	Cc1cccc(NC(=O)c2c(C)cc(=O)oc2C)n1
15%	-15%	CC[N+]1(CC(O)COC2CC(C)CC(C)(C)C2)CCOCC1 (centres undefined)
-3%	-8%	CCN(CC)CCNC(=O)c1ccc(NC(=O)c2c(F)cccc2Cl)cc1
-9%	.	N#CC1(NC(=O)COC(=O)c2ccc(-c3ccc(O)cc3)cc2)CCCCC1
-7%	-15%	CCc1ccc2n(-c3ccc(OC)cc3)c([S-])c(C(=O)Nc3cc(C)cc(C)c3)[n+]2c1
-4%	4%	CCNc1nnc(-c2ccc(C)cc2)o1
-11%	-1%	Cc1cccc(C(=O)c2c(N)sc3c2CCCC3)c1
.	-7%[12.8 µM]	CC(C)(C)N1C(=O)[C@H]2[C@H]3[C@H](O)[C@H](O)C/C(=N/NC(=O)OCc4ccccc4)[C@@H]3CC[C@@H]2C1=O
2%	-1%	NC(=O)COC(=O)CC(NC(N)=O)c1ccc(Cl)cc1 (centres undefined)
5%	7%	O=C(CSc1ccc(-c2ccc(Cl)cc2)nn1)Nc1ccc2c(c1)OCCO2
-4%	-9%	Cn1c(SCC(=O)NC2CCCc3ccccc32)nnc1C1CC1 (centres undefined)
-5%	.	COc1cccc(NC(=O)Cn2c(=O)n(CC(=O)NCCc3ccccc3)c(=O)c3sccc32)c1
2%	.	Cc1c(C2(O)CCCCC2)[nH]c2ccc(C#N)cc12
1%	-17%	O=C(NC1=NCCS1)C12CC3CC(C1)CC(C(=O)NC1=NCCS1)(C3)C2
-5%	-17%	COc1cc(C(=O)N(C)Cc2cccc(OC)c2OC)ccc1OCC(=O)Nc1cccc(C(F)(F)F)c1
-1%	-2%	COc1cccc(/C=N/NC(=O)CCCC(=O)NC2CCCCC2)c1
9%	10%	CSc1cc(-c2ccccc2)[nH]c(=O)c1C#N
-15%	-22%	O=C(CSc1nc(=O)n2ccccc2n1)NCc1ccccc1
6%	0%[12.8 µM]	COc1ccc(S(=O)(=O)NCCSC(C)(C)C)cc1
-5%	13%	COc1ccccc1N(C)S(=O)(=O)c1ccc(C(=O)OC(C)C(=O)NCc2ccc3c(c2)OCO3)cc1 (centres undefined)
0%	-10%	CCOc1ccc(-c2c(C(=O)N/N=C/c3ccc(Cl)cc3)nnn2-c2nonc2N)cc1
-3%	0%	COc1cc(/C=N/NC(=O)c2ccc(N(C)S(=O)(=O)c3ccccc3)cc2)cc(OC)c1OC
0%	-4%	COc1cc(C2N(c3ccc(Cl)cc3)C(=O)C3CCCN32)cc(OC)c1OC (centres undefined)
3%	3%	CC(C)N(Cc1cnn(C)c1)Cc1nc(COc2ccccc2)no1
-9%	5%[2.35 µM]	O=C(Oc1ccccc1)N1CCN(c2ccc(F)cc2)CC1
8%	4%	O=C(C1CCN(S(=O)(=O)N2CCC3(CC2)OCCO3)CC1)N1CCCCC1
5%	-7%	Cn1c(CNC(=O)c2ccccc2F)nnc1SCCOc1ccccc1
-17%	26%	CC1(C)CC(=O)c2cc(OCC(=O)NCCCN3CCN(c4ccccc4F)CC3)ccc2O1
-6%	-12%	CCC(=O)N1CCN(c2ccc(NC(=S)NC(=O)c3ccc(OC)c([N+](=O)[O-])c3)cc2)CC1
-16%	-29%	Cc1nc2c(cc(Oc3ccc(S(=O)(=O)N4CCOCC4)cn3)c3ccsc32)s1
4%	2%[2.35 µM]	Cc1ccc2cc(C#N)c(SCC(=O)NCC3CCCO3)nc2c1 (centres undefined)
-23%	.	CN(c1ccccc1)S(=O)(=O)c1ccc(C(=O)NCc2ccc(F)cc2)cc1
1%	0%	CC(=O)Nc1ccc(NC(=O)c2ccccc2-n2cnnn2)cc1
-7%	0%	O=C1c2ccccc2C(Nc2ccc(Cl)cc2)N1CCN1CCOCC1 (centres undefined)
4%	-18%	O=C(CN(Cc1ccc2c(c1)OCO2)C(=O)CSc1nc2ccccc2o1)NC1CCCCC1
0%	-1%	CCC1CCCCN1CCCNC(=O)C1CCN(c2ncnc3c2nc2n3CCCCC2)CC1 (centres undefined)
2%	-5%	COc1ccccc1C(=O)Nc1cccc2c1CCCC2
4%	-11%	COc1ccc(NC(=O)COc2ccc(C)c(C)c2)cc1S(=O)(=O)N1CCCCC1
4%	8%	Cc1ccc(CNC(=O)CCNC(=O)Cn2ccc3ccccc3c2=O)o1
0%	10%	CN(C(N)=S)c1ccccc1
.	2%	Cc1cccn2c(=O)c3cc(C(=O)NCCCN4CCOCC4)n(C)c3nc12
-6%	-7%	COc1ccc(-n2c(SCC(=O)Nc3ccc(NC(C)=O)cc3)nc3c([nH]c4ccccc43)c2=O)cc1OC
2%	.	O=C(Nc1ccccc1Br)C(Cc1ccccc1)NS(=O)(=O)c1cccc2nsnc12 (centres undefined)
3%	3%	C=C(C)c1cccc(C(C)(C)NC(=O)NC2CCCC2)c1
12%	1%	CCOC(=O)c1cnc(-c2ccccc2)nc1N1CCOCC1

Of the compounds above, these have fluorine.
FEN1 inh	N370S GC	canonical_smiles
1%	8%[2.35 µM]	COc1ccc(CCNC(=O)CCSc2nc(-c3ccco3)cc(C(F)(F)F)n2)cc1
-11%	1%	O=C(CN(Cc1cccs1)C(=O)CNS(=O)(=O)c1ccc(F)cc1)NCc1ccco1
14%	-11%	Cc1cc(NC(=NC2CC2)c2ccccc2F)n(-c2ccccc2)n1
-12%	-2%	O=C(COC(=O)c1ccc(S(=O)(=O)N2CCCC2)cc1)Nc1ccc(F)cc1F
-16%	-6%	O=C(Nc1ncc(Cc2ccc(C(F)(F)F)cc2)s1)c1ccc(-c2cccc([N+](=O)[O-])c2)o1
-13%	-28%	COc1cc(/C=N/NC(=O)c2ccc(F)cc2)ccc1OC(=O)c1ccco1
-11%	1%	COc1nc(N/N=C/c2ccccc2F)nc(N2CCCCC2)n1
11%	3%	O=C(Nc1cc(C(F)(F)F)ccc1N1CCOCC1)c1cccnc1
-3%	-8%	CCN(CC)CCNC(=O)c1ccc(NC(=O)c2c(F)cccc2Cl)cc1
-5%	-17%	COc1cc(C(=O)N(C)Cc2cccc(OC)c2OC)ccc1OCC(=O)Nc1cccc(C(F)(F)F)c1
-9%	5%[2.35 µM]	O=C(Oc1ccccc1)N1CCN(c2ccc(F)cc2)CC1
5%	-7%	Cn1c(CNC(=O)c2ccccc2F)nnc1SCCOc1ccccc1
-17%	26%	CC1(C)CC(=O)c2cc(OCC(=O)NCCCN3CCN(c4ccccc4F)CC3)ccc2O1
-23%	.	CN(c1ccccc1)S(=O)(=O)c1ccc(C(=O)NCc2ccc(F)cc2)cc1

Bioassay records from PubChem.
